VDR inh: blocks the human vitamin D receptor; P11473; VDR-SRC2-3 peptide fluorescence polarization, 2 h; Potency, µM, for inactives: max response, negative = inhibition, usual class: inhibitors; actives 0.93% (n = 400,000); active means well fitted inhibition curve with a large enough effect; inconclusive means small, poorly fitted or top-dose-only effect, or another doubt; inactive means no such curve, though single readings can be large or run the other way; further: series mostly up to about 120 µM
Target sequence (P11473 whole entry, looked up): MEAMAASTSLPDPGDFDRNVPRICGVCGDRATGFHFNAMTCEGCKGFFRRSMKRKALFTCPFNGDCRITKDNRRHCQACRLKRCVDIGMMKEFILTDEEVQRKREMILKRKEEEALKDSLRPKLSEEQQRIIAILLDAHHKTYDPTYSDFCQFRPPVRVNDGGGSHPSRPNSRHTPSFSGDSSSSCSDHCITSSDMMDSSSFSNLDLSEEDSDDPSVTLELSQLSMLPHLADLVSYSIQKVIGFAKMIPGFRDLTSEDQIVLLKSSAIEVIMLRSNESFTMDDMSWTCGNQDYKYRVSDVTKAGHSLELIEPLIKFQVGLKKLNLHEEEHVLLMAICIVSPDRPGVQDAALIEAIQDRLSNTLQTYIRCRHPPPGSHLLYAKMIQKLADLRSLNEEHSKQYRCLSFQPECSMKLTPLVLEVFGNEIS
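Two reagent solutions held at 4 deg C in the dark were dispensed, compounds pinned at 23 nl, and the mixture incubated 2 h at room temperature. Read-out: fluorescence polarization of VDR–SRC2-3 peptide binding.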
An asterisk follows results filed as active; ? = inconclusive; & = joins results of further samples; [ ] = another dose, or the depositor's remark. On the % scale 0 is the no-effect control and ±100 the full control effect; potency means the concentration at half of the fitted maximal effect.

VDR inh,molecule
-12%,Cc1cc(=O)oc2c3c(cc(OCC(=O)N[C@H](C(=O)O)c4ccccc4)c12)OC(C)(C)CC3
12%,Cc1ccc(C)c(NC(=O)NNS(=O)(=O)c2ccc(C)c(C)c2)c1
5%,COc1ccc(OCCNS(=O)(=O)c2ccccc2)cc1
-9%,O=C(NC1=NCCS1)c1ccccc1
-4%,COC(=O)C1CCN(C(=O)c2cc(S(=O)(=O)N3CCCCC3)ccc2Cl)CC1
5%,C[C@H](NC(=O)OCc1ccccc1)c1nnc([C@H](Cc2ccccc2)NC(=O)OC(C)(C)C)o1
0%,COc1cccc(N2CCN(C(=O)Nc3ccc4c(c3)NC(=O)CO4)CC2)c1
-22%,CCC(c1nnc(SCC(=O)NNC(=O)c2ccccc2)n1Cc1ccccc1)N(C)C (stereo not drawn)
-2%,O=S(=O)(c1cccc(Cl)c1)N1CCCC1
0%,O=C(OCc1nnc(-c2ccc(Br)cc2)o1)c1cncc(Br)c1
6%,CCOC(=O)CC1C(=O)NCCN1C(=O)c1sc2ccccc2c1Cl (stereo not drawn)
9%,CC[N+](CC)(CC)CCCCOc1ccc2c(c1)C(=O)c1cc(OCCCC[N+](CC)(CC)CC)ccc1-2
-4%,COc1ccc(C(CNC(=O)c2cc3c(s2)CCCC3)N2CCOCC2)cc1 (stereo not drawn)
-1%,CSc1nc2c(c(C(F)(F)F)n1)CC(C)CC2 (stereo not drawn)
-1%,CC1(c2nnc(-c3ccncc3)o2)CC(c2ccc(Cl)cc2)=NO1 (stereo not drawn)
-4%,Cc1ccc(OCC(=O)c2ccc3c(c2)CCCC3)cc1C
-10%,Cc1cc(C)cc(N(C(=O)Cn2nnc(-c3ccccc3)n2)C(C(=O)NC2CCCCC2)c2ccccn2)c1 (stereo not drawn)
-15%,COc1cc2c(cc1OC)C(C)N(C(=O)Nc1ccccc1)CC2 (stereo not drawn)
-8%,CCOC(=O)c1c(NC(=O)CN2CCCCC2)sc2c1CCCC2O (stereo not drawn)
-2%,COc1ccccc1C1NC(=O)c2n[nH]c(-c3cccs3)c21 (stereo not drawn)

Sorted by count of non-hydrogen atoms (low to high): part of the list above.
VDR inh,molecule
-22%,CCC(c1nnc(SCC(=O)NNC(=O)c2ccccc2)n1Cc1ccccc1)N(C)C (stereo not drawn)
-12%,Cc1cc(=O)oc2c3c(cc(OCC(=O)N[C@H](C(=O)O)c4ccccc4)c12)OC(C)(C)CC3
9%,CC[N+](CC)(CC)CCCCOc1ccc2c(c1)C(=O)c1cc(OCCCC[N+](CC)(CC)CC)ccc1-2

The list goes on.
VDR inh,molecule
-11%,O=C(NCc1ccncc1)c1ccc(NS(=O)(=O)c2ccc(F)cc2)cc1
-17%,CSc1cccc(NC(=O)CN(C)S(=O)(=O)c2cnc[nH]2)c1
-6%,C=CCc1cccc(C2Nc3ccccc3C(=O)N2O)c1O (stereo not drawn)
-5%,CCN(CC(=O)Nc1c(F)cccc1F)C(=O)c1cc(S(=O)(=O)N2CCOCC2)ccc1N1CCCC1
27%,O=C(CSc1ccc(-c2ccc(F)cc2)nn1)NCc1ccco1
-15%,COc1cccc(C(=O)N2CCN(Cc3ccccc3Br)CC2)c1
-9%,CC[C@H](C)[C@H](NC(=O)CNC(=O)[C@H](CC(C)C)NC(=O)[C@H](CC(C)C)NC(=O)[C@H](CCC(N)=O)NC(=O)[C@H](CCC(N)=O)NC(=O)[C@H](CC(=O)O)NC(=O)[C@H](CCCCN)NC(=O)[C@H](CC(C)C)NC(=O)[C@H](Cc1ccc(O)cc1)NC(=O)[C@H](CCCNC(=N)N)NC(=O)[C@H](CCC(=O)O)NC(=O)[C@@H](NC(=O)[C@H](C)NC(=O)[C@H](CC(C)C)NC(=O)[C@@H](NC(=O)[C@@H](N)CCCNC(=N)N)[C@@H](C)CC)C(C)C)C(=O)N[C@@H](Cc1c[nH]c2ccccc12)C(=O)NCC(=O)N[C@@H](CS)C(=O)N[C@@H](CO)C(=O)O
?,CCOC(=O)C(Sc1ncc(C#N)c(N)n1)C(C)C (stereo not drawn)
-14%,CCOc1ccccc1C1CC(=O)Nc2cc(C)c(C)cc21 (stereo not drawn)
4%,CCCCc1cc(=O)oc2c(C)c(OCc3nn[nH]n3)ccc12
1%,CCOc1ccccc1NC(=O)NCc1ccco1
-23%,O=C(N/N=C1\CCS(=O)(=O)c2ccc(F)cc21)c1ccc([N+](=O)[O-])cc1
16%&-12%,CCOC(=O)c1ccc(NC(=O)C(=O)NCCc2ccc(OC)cc2)cc1
0%,CCC(=O)Oc1ccc(NC(=O)c2ccco2)cc1
-16%,CC(=O)Nc1ccc(S(=O)(=O)N2CCNC(=O)C2)cc1
-3%,Cc1ccc(C(C)C)c(OCCCN2CC(C)OC(C)C2)c1 (stereo not drawn)
11%,CCOC(=O)c1ccccc1NC(=O)N(C(C)C)C1CCN(C(C)=O)CC1
-6%,FC(F)(F)c1ccc(Oc2ccccc2Cl)nc1
-3%,Cc1ccc(CN2CCN(Cc3ccc(Oc4ncccn4)cc3)CC2CCO)cc1 (stereo not drawn)
1%,Cc1ccc(Nc2nc(-c3ccc(O)c(O)c3)cs2)nc1

Compounds listed so far that contain a Cl atom, in the order listed:
VDR inh,molecule
-4%,COC(=O)C1CCN(C(=O)c2cc(S(=O)(=O)N3CCCCC3)ccc2Cl)CC1
-2%,O=S(=O)(c1cccc(Cl)c1)N1CCCC1
6%,CCOC(=O)CC1C(=O)NCCN1C(=O)c1sc2ccccc2c1Cl (stereo not drawn)
-1%,CC1(c2nnc(-c3ccncc3)o2)CC(c2ccc(Cl)cc2)=NO1 (stereo not drawn)
-6%,FC(F)(F)c1ccc(Oc2ccccc2Cl)nc1

Next part.
VDR inh,molecule
9%,COc1ccc(CCNC(=O)CCC(=O)N2CCN(S(=O)(=O)c3ccccc3)CC2)cc1OC
-14%,O=C(NCC[C@@H]1C[C@@H]2C=C[C@H]1C2)c1cc(COc2ccc(F)cc2F)on1
-16%,CC(C)Nc1ccc(Nc2ccnc3cc4ccccc4cc23)cc1
2%,CN(C)S(=O)(=O)c1ccc(C(=O)N(Cc2cccnc2)c2nc3c(F)cc(F)cc3s2)cc1
4%,CCc1ccc(NC(=O)C2CCN(S(=O)(=O)c3cccc(-c4noc(C)n4)c3)CC2)cc1
-1%,O=C(CN1C(=O)c2ccccc2S1(=O)=O)NCc1ccccc1
-2%,CNC(=O)c1ccc(-c2cc(C(F)(F)F)nn2C)s1
-23%,Cc1cccc(C)c1N(CC(=O)N/N=C/c1cc(Br)c(C)o1)S(C)(=O)=O
11%,CC(CNC(=O)c1ccc(-c2ccccc2)cc1)CN(C)C (stereo not drawn)
10%,O=C(Nc1cc(C(F)(F)F)ccc1N1CCOCC1)c1ccccc1F
5%,COc1ccc(CCNC(=O)COC(=O)Cc2ccc(OC)cc2)cc1
0%,Cc1ccc(-n2nc3c(N4CCCC(C(=O)NCCc5ccccc5)C4)nnc(C)c3c2C)cc1 (stereo not drawn)
-4%,CN(C(=O)CSc1nc2ccccc2c(=O)n1-c1ccccc1F)C1CCS(=O)(=O)C1 (stereo not drawn)
-5%,COc1ccccc1Nc1ncccc1[N+](=O)[O-]
-1%,O=c1cc(N2CCc3ccccc32)[nH]c(=O)n1Cc1ccc(F)cc1
14%,Cc1ccc2nc(N3CCN(C=O)CC3)nc(-c3ccccc3)c2c1
-4%,CC(C)(C)c1ccc(NC(=O)CSc2nnc3scc(-c4ccccc4)n23)cc1
3%,Cc1cc(-c2ccc(C(C)C)c(S(=O)(=O)Nc3cc(C)on3)c2)on1
-15%,CCOC(=O)C1=C(C)NC(C)=C(C(=O)OCC)C1c1ccco1
6%,CCC(C(=O)NCCC(C)C)N(C(=O)Cn1nnc(-c2ccc(C)cc2)n1)c1cccc(O)c1 (stereo not drawn)

VDR inh,molecule
-2%,O=C(Nc1nncs1)C1c2ccccc2Oc2ccccc21
-22%,CCCn1ccnc1SCC(=O)Nc1c(C)n(C)n(-c2ccccc2)c1=O
-15%,O=[N+]([O-])c1cc(C2Nc3cccc4cccc(c34)N2)ccc1Cl
?,COc1cccc(CNC(=O)Cn2ccc3cc(S(=O)(=O)N4CCC(C)CC4)ccc32)c1
6%,Cc1cc(C)n(S(=O)(=O)c2cccc([N+](=O)[O-])c2)n1
3%,COC(=O)Cc1c(C)c2ccc(OCc3nn[nH]n3)cc2oc1=O
-10%,O=c1[nH]cnc2c1ncn2[C@@H]1C[C@@H](O)[C@H](CO)O1
-15%,Cc1c(C)c2ccc(OS(C)(=O)=O)c(C)c2oc1=O
0%,CCC(=O)Nc1cc(C)c(NC(=O)c2ccco2)cn1
-7%,O=C(Cc1ccccc1)NCCc1cn2ccsc2n1
2%,NS(=O)(=O)c1ccc2nc(NC(=O)c3ccncc3)sc2c1
-12%,CCc1ncc(CN2CCCC(C(=O)Nc3cccc(-c4ccc(F)cc4)c3)C2)cn1 (stereo not drawn)
-5%,CCN1CCN(c2cc(C(C)(C)C)nc3c(-c4ccccc4)c(C)nn23)CC1
-2%,COc1ccc(Cl)cc1S(=O)(=O)NC(C)C(=O)NCCN1CCOCC1 (stereo not drawn)
5µM*,CC(C)C(C(=O)O)N1C(=O)/C(=C/c2ccc(Br)cc2)SC1=S (stereo not drawn)
-9%,CC(=O)Nc1cccc(NC(=O)c2cccc(-c3ccc(O)cc3)c2)c1
20%,CCCCc1c(O)nc(SCC(=O)N2CCCCCC2)[nH]c1=O
5%,Cc1ccc(C(=O)NNC(=O)Cn2ccc(C(F)(F)F)n2)o1
-1%,O=S(=O)(c1cccc(Br)c1)N1CCN(CCc2ccccc2)CC1
-19%,N#C/C(C(=O)NCc1ccco1)=C1/SC=C(c2ccccc2)N1c1ccccc1

Structures listed above shown as hits in VDR inh:
VDR inh,molecule
5µM*,CC(C)C(C(=O)O)N1C(=O)/C(=C/c2ccc(Br)cc2)SC1=S (stereo not drawn)

More records:
VDR inh,molecule
-4%,Nc1ncnc2c1ncn2C1OC(CO)C(O)C1O (stereo not drawn)
9%,C=C(C)c1cc2c(ccc3ccc(=O)oc32)o1
-10%,COC(=O)c1ccc(CN2C(=O)NC3(CCCc4ccccc43)C2=O)o1 (stereo not drawn)
3%,CC(Cc1ccccc1)NC(=O)C1CCCNC1=O (stereo not drawn)
-5%,COc1ccc(S(=O)(=O)n2nc(OC(C)=O)cc2N(C(C)=O)C(C)=O)cc1
-11%,CCOC(=O)c1cnc2c(C(F)(F)F)cccc2c1Nc1cccc(C(=O)OC)c1
13%,C[C@H](NC(=O)c1ccco1)C(=O)Nc1nnc(SCc2ccccc2)s1
1%,COc1ccc(S(=O)(=O)Nc2cc(C)cc(C)n2)c2ccccc12
-5%,COc1cc(NC(=O)Cn2c(=O)n(Cc3ccccc3Cl)c(=O)c3cc(OC)c(OC)cc32)cc(OC)c1
5%,CCN(CC)S(=O)(=O)c1ccc(Cl)c(C(=O)NC2CCN(Cc3ccccc3)CC2)c1
-15%,Cc1ccc(-n2c(=O)cc(N3CCN(C(=O)c4ccco4)CC3)[nH]c2=O)cc1
-5%,COc1ccc(NC(=O)c2ccc(NC(=O)c3cccs3)cc2)cc1
4%,O=C(O)COCC(=O)Nc1ccccc1-c1ccccc1
-12%,CC(OC(=O)CCC(=O)c1ccc(Cl)s1)C(=O)NC1(C#N)CCCCC1 (stereo not drawn)
6%,COc1ccccc1CNC(=O)COc1ccccc1C
-8%,CCOC(=O)[C@H]1[C@H]2COc3ccc(OC)cc3[C@@H]2N2C(=O)CN(Cc3ccc(OC)cc3)C(=O)[C@@]12C
9%,COc1ccccc1Cc1nc2ccccc2[nH]c1=O
11%,CCc1cc(C(=O)N(CC(C)C)c2c(N)n(Cc3ccccc3)c(=O)[nH]c2=O)sc1C
-9%,CNC(=O)CCCCCNS(=O)(=O)c1ccc(C)cc1
9%,CSc1nnc(C(C)(C)C)c(=O)n1/N=C/c1ccc(Cl)cc1

Copied from the list.
VDR inh with CNC(=O)CCCCCNS(=O)(=O)c1ccc(C)cc1 stands at -9%
VDR inh with COC(=O)c1ccc(CN2C(=O)NC3(CCCc4ccccc43)C2=O)o1 (stereo not drawn) stands at -10%
VDR inh with CCOC(=O)[C@H]1[C@H]2COc3ccc(OC)cc3[C@@H]2N2C(=O)CN(Cc3ccc(OC)cc3)C(=O)[C@@]12C stands at -8%
VDR inh with CCOC(=O)c1cnc2c(C(F)(F)F)cccc2c1Nc1cccc(C(=O)OC)c1 stands at -11%
VDR inh with Nc1ncnc2c1ncn2C1OC(CO)C(O)C1O (stereo not drawn) stands at -4%
VDR inh with C[C@H](NC(=O)c1ccco1)C(=O)Nc1nnc(SCc2ccccc2)s1 stands at 13%
VDR inh with COc1ccc(S(=O)(=O)Nc2cc(C)cc(C)n2)c2ccccc12 stands at 1%

Other records.
VDR inh,molecule
6%,Oc1ccc2ccccc2c1C=NCc1ccccc1
10%,Cc1ccccc1NC(=O)C1C2CCC(O2)C1C(=O)O (stereo not drawn)
11%,CN(c1ncnc(N)c1[N+](=O)[O-])C1CCS(=O)(=O)C1 (stereo not drawn)
-1%,CCCN(CCC)C(=O)Cn1nnc2sc(-c3ccccc3)cc2c1=O
-1%,O=C(NCC1CCCO1)c1cc(-c2ccncc2)nc2ccccc12 (stereo not drawn)
9%,O=C(NCc1ccccc1)c1cccc(N2CCCS2(=O)=O)c1
125%[activator],Cc1c(NC(=O)C(C)OC(=O)CC2CC3CCC2C3)c(=O)n(-c2ccccc2)n1C (stereo not drawn)
2%,N#CC1=C(N)OC2=C(C(=O)CCC2)C1C1CC=CCC1 (stereo not drawn)
-2%,CCCn1nnc(NC(=O)COc2ccc(C3CCCCC3)cc2)n1
6%,Cc1cc(NC(=O)c2cc(-c3cccc(OCC(C)C)c3)nc3ccccc23)no1
0%,COC(=O)c1sccc1NC(=O)c1c(Cl)cnn1C
-9%,CC(=O)c1sc2nsc(SCCN3CCCC3)c2c1N
-14%,O=C(O)c1ccc(Nc2cccc(F)c2)c([N+](=O)[O-])c1
-7%,COc1ccc(S(=O)(=O)N2CCOC2CNC(=O)C(=O)NCCCc2ccccc2)cc1 (stereo not drawn)

Screening results: PubChem BioAssay, National Center for Advancing Translational Sciences (NCATS)

These rows are one share of the data; the hit share may differ from the screen's.
